KCNQ2 inh: KCNQ2 channel blockers in CHO-K1 cells – cell-based, FluxOR thallium flux, B-score, primary screen (AID 2156); O88943; 20 min; hits give low values; only compounds with negative scores are shown here; some inactives read as strong as hits; B-score at 10 µM; actives 1.1% (n = 310,000);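 active means fluorescence ratio B-score at most minus 3 library SDs, with starting brightness B-score within 2 library SDs, cut at about -5.5 in these data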
Target sequence (O88943 whole entry, looked up): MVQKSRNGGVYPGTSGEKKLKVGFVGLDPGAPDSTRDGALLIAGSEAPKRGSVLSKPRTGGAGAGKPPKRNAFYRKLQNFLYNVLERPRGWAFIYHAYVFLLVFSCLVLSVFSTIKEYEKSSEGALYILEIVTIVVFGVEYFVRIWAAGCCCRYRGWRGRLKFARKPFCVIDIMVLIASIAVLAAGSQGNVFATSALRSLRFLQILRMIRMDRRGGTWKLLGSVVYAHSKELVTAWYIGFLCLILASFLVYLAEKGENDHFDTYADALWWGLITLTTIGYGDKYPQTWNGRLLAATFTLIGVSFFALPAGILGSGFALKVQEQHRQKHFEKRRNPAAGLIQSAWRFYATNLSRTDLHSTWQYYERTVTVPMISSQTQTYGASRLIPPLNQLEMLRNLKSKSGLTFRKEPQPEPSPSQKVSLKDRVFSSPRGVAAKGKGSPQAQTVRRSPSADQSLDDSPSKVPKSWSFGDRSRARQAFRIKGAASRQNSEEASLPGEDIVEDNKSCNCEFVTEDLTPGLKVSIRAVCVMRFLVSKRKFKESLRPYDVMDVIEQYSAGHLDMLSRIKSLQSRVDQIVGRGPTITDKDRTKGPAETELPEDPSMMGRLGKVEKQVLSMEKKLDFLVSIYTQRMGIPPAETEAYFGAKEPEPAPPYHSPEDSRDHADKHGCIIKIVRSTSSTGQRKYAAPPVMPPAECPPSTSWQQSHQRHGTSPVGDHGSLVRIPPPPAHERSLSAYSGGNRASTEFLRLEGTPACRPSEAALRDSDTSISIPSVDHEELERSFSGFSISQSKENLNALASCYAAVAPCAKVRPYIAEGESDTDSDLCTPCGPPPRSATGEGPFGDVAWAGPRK
KCNQ2 inh baseline: also measured in KCNQ2 inh; calls as there; B-score; measured here: initial fluorescence intensity artifact check;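 brightness before thallium and not channel activity; 0 = typical well and far values either way flag optical interference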
Active calls of the source: *; i = inactive. An excerpt (hit frequency here may not be typical).

Below each SMILES: KCNQ2 inh, KCNQ2 inh baseline
Cc1cc(C)cc(C(=O)N2CCN=C2SCc2ccc([N+](=O)[O-])cc2)c1
  i, 0.71
CC(=O)Nc1ccc(S(=O)(=O)Nc2ccccc2C(=O)N2CCCCCC2)cc1
  i, 0.01
CCOc1ccc(/C=N/NC(=O)c2ccoc2C)cc1OC
  i, -0.44
CSc1nc(NCc2ccco2)c2sc3nc(C(C)C)c4c(c3c2n1)CC(C)(C)OC4
  i, 0.4
c1cc(CNC23CC4CC(CC(C4)C2)C3)ccn1
  i, 4.89
Cc1cccc(-c2noc(Cc3ccc(Cl)cc3)n2)c1
  i, -1.33
O=C(Nc1ccc(NC(=O)C2CC2)cc1)c1cccs1
  i, -0.35
NC(=O)c1ccsc1NC(=O)CCc1ccccc1
  i, -0.26
CN(Cc1ccc(Br)cc1)C(=O)CCN1C(=O)c2cccc([N+](=O)[O-])c2C1=O
  i, -1.45
O=C(O)CONC(=O)c1cc(OCC(F)(F)F)ccc1OCC(F)(F)F
  i, -0.05
OC(COc1ccc(CNCc2cccnc2)cc1)CN1CCc2ccccc2C1 (configuration not stated)
  i, -4.09
Cc1ccc(S(=O)(=O)NCCSc2nnnn2-c2ccc(C(N)=O)cc2)cc1
  i, 1.55
CC(C)CCNC(=O)[C@H](CC(C)C)NC(=O)[C@H]1O[C@@H]1C(=O)O
  i, 2.77
COc1ccc(O)c(/C=N/N=C2/C(=O)Nc3ccccc32)c1
  i, 0.42
Cc1cccc(-n2c(C)c(C)c3c(N)ncnc32)c1
  i, -0.08
COc1cc2c(C)nc3c(cnn3-c3ccccc3)c2cc1OC
  i, -0.34
CS(=O)(=O)Nc1ccccc1C(=O)NCCSCc1ccccc1
  i, 0.34
CN(C)C(=O)c1cc([N+](=O)[O-])ccc1O
  i, -0.77
CC(C)CN1CCN(Cc2cccn2-c2ccc(Cl)cn2)CC1CCO (configuration not stated)
  i, -0.01
COc1cccc(CCNC(=O)C2CCC(=O)N(Cc3cccc(OC)c3)C2)c1 (configuration not stated)
  i, 0.56
Cc1cc2oc(=O)cc(CN3CCN(S(=O)(=O)c4ccc5c(c4)OCCO5)CC3)c2cc1C
  i, 0.09
CS(=O)(=O)N1CCN(c2ccccc2NC(=S)NC(=O)c2cccs2)CC1
  i, -1.43
Cc1cc(=O)oc2cc(NC(=O)CCCC(=O)O)ccc12
  i, -2.18
Cc1ccc(Oc2ncccc2NC(=O)CC(CC(=O)O)c2ccccc2)c2c1CCC2 (configuration not stated)
  i, 1.16
O=C(COC(=O)c1cn(-c2ccccc2)nc1-c1ccccc1)c1ccc([N+](=O)[O-])cc1
  i, 0.85
CCOC(=O)N1CCN(CC(=O)Nc2cc(C)nn2-c2nc3ccccc3s2)CC1
  i, 0.7
COc1ncccc1C(=O)NC1CCCc2c1cnn2-c1ccc(C)c(C)c1 (configuration not stated)
  i, 0.05
COCCSc1ccccc1C(=O)Nc1ccc(Cl)cn1
  i, 0.94
CCCCCCCN1C/C=C\C(c2ccc(OC)cc2)N(Cc2ccc(F)cc2)C(=O)[C@H]1Cc1ccccc1 (some centres not stated)
  i, -1.23
N#CCCN(C(=O)COC(=O)c1cccc(S(=O)(=O)Nc2ccc([N+](=O)[O-])cc2)c1)c1ccccc1
  i, 0.85

Among those listed so far, these contain an aryl methoxy group:
Below each SMILES: KCNQ2 inh, KCNQ2 inh baseline
CCOc1ccc(/C=N/NC(=O)c2ccoc2C)cc1OC
  i, -0.44
COc1ccc(O)c(/C=N/N=C2/C(=O)Nc3ccccc32)c1
  i, 0.42
COc1cc2c(C)nc3c(cnn3-c3ccccc3)c2cc1OC
  i, -0.34
COc1cccc(CCNC(=O)C2CCC(=O)N(Cc3cccc(OC)c3)C2)c1 (configuration not stated)
  i, 0.56
COc1ncccc1C(=O)NC1CCCc2c1cnn2-c1ccc(C)c(C)c1 (configuration not stated)
  i, 0.05
CCCCCCCN1C/C=C\C(c2ccc(OC)cc2)N(Cc2ccc(F)cc2)C(=O)[C@H]1Cc1ccccc1 (some centres not stated)
  i, -1.23

Back to the main list with the 5 entries that preceded the break.
Below each SMILES: KCNQ2 inh, KCNQ2 inh baseline
CCOC(=O)N1CCN(CC(=O)Nc2cc(C)nn2-c2nc3ccccc3s2)CC1
  i, 0.7
COc1ncccc1C(=O)NC1CCCc2c1cnn2-c1ccc(C)c(C)c1 (configuration not stated)
  i, 0.05
COCCSc1ccccc1C(=O)Nc1ccc(Cl)cn1
  i, 0.94
CCCCCCCN1C/C=C\C(c2ccc(OC)cc2)N(Cc2ccc(F)cc2)C(=O)[C@H]1Cc1ccccc1 (some centres not stated)
  i, -1.23
N#CCCN(C(=O)COC(=O)c1cccc(S(=O)(=O)Nc2ccc([N+](=O)[O-])cc2)c1)c1ccccc1
  i, 0.85
CCOc1cc(CO)cc(Br)c1OCC(=O)Nc1ccccc1C
  i, 0.15
Cc1ccc(C)c(-c2csc(N)c2C(=O)OC(C)C)c1
  i, -0.29
CCN(CC)C(=O)Oc1ccc(Cl)c2ccccc12
  i, -1.35
Cc1cc(=O)oc(C)c1C(=O)NCC(C)C
  i, 0.29
CCCn1c(SCC(=O)N2CCCCC2)nc2c1c(=O)n(C)c(=O)n2C
  i, 1.71
Cc1cc(Oc2ccccc2)nc(N2CCOCC2)n1
  i, 0.52
Cc1c([N+](=O)[O-])cc(C(=O)Nc2ccc(NC(=O)c3ccco3)cc2)cc1[N+](=O)[O-]
  i, 1.27
O=S(=O)(C=C(c1ccccc1)c1ccccc1)c1ccccc1
  i, 0.02
O=C(c1ncn[nH]1)N1CCN(c2nc(-c3ccccc3)cs2)CC1
  i, -0.23
CC(=O)Nc1cccc(C(=O)NC2CCCc3c2cnn3-c2ccc(C(C)(C)C)cc2)c1 (configuration not stated)
  i, 3.46
O=C(COC(=O)c1cc(Br)ccc1Cl)NC(=O)NCc1ccccc1
  i, 0.08
COc1ccccc1CNC(=O)COC(=O)c1c(C)nn(-c2ccccc2)c1Cl
  i, -2.62
Cc1c(C(=O)N2CCCCC2)c(S(=O)(=O)NCc2ccccc2Cl)c(C)n1C
  i, -0.27
COc1cc(/C=N/NS(=O)(=O)c2ccc3ccccc3c2)ccc1OCc1ccc(C(=O)O)cc1
  i, -0.59
Cc1[nH]nc(N)c1N=Nc1ccc(Br)cc1
  i, 0.41
c1ccc(N=C(c2cccs2)N2CCOCC2)cc1
  i, -0.4
CCC(NC(=O)NNC(N)=S)(C(F)(F)F)C(F)(F)F
  i, -0.7
Cc1ccc(CNC(=O)CN2CCCC(C)C2)cc1 (configuration not stated)
  i, -0.13
COc1cc(CN2CCN(Cc3ccc(SC)cc3)CC2)cc(OC)c1O
  i, 0.02
COC(=O)c1[nH]c2ccccc2c1NC(=O)c1ccccc1F
  i, 2.23
CSc1ccc(CN(C)C(=O)c2cc(Cl)c3c(c2)OCCO3)cc1
  i, -0.03
Cc1ccc(-c2csc(NC(=O)C3=COCCO3)n2)cc1C
  i, 1.04
Cc1cc(Br)ccc1OCCOCCN1CCCC1
  i, 0.17
COc1ccc(CNC(=O)Nc2cc(C)cc(C)c2)cc1
  i, 0.97
CC(C)c1ccc(OCC(=O)NC2=NCCS2)cc1
  i, 0.98
CCCN(CCC)CCCNC(=O)CCNS(=O)(=O)c1ccc(Br)cc1
  i, 3.17
CCOc1ccc(S(=O)(=O)N2CCCCC2)cc1NC(=O)C1CCC1
  i, -0.14
Cc1cc(O)c(C(C[N+](=O)[O-])c2ccc(Cl)cc2)c(=O)o1 (configuration not stated)
  i, -1.56
Cc1ccc[n+](C(C)C(=O)Nc2ccc([N+](=O)[O-])cc2C)c1 (configuration not stated)
  i, -1.94
Cc1ccn2c(=O)nc(SCC(=O)NCc3ccc(F)cc3)nc2c1
  i, 0.26
CC(=O)O[C@H]1C(=O)[C@@]2(C)C([C@H](OC(=O)c3ccccc3)[C@]3(O)C[C@H](OC(=O)[C@H](O)[C@@H](NC(=O)c4ccccc4)c4ccccc4)C(C)=C1C3(C)C)[C@]1(OC(C)=O)CO[C@@H]1C[C@H]2O (some centres not stated)
  i, -0.29
COc1cc([N+](=O)[O-])ccc1NC(=O)Cc1ccc(C)cc1
  i, -1.41
CCC1=NN(C(=O)COc2ccccc2)C(O)(c2ccc(Br)cc2)C1 (configuration not stated)
  -5.99*, -0.9*
Cn1c(=NC(=O)c2ccco2)sc2cccc(F)c21
  i, 0.59
COc1ccc(/C=N/NC(=O)c2cccc([N+](=O)[O-])c2)cc1OS(=O)(=O)c1ccccc1
  i, -0.04
O=C1c2ccccc2C(=O)N1CC1c2ccccc2CCN1C(=O)C1CCCCC1 (configuration not stated)
  -6.91*, -0.01*
N#Cc1c(NC(=O)CSc2ncnc3c2cnn3-c2ccccc2Cl)sc2c1CCCC2
  i, -2.02
O=C(Nc1nc2ccc(Cl)cc2s1)C1CCCO1 (configuration not stated)
  i, -1.56
CCCCN(C(=N)N1CCCCC1)c1nc(C)c([N+](=O)[O-])c(=O)[nH]1
  i, 0.46
CCOC(=O)N1CCN(C(=O)C2CCN(Cc3ccc(O)c(OCC)c3)CC2)CC1
  i, 0.99
CCCCn1c(SCC(=O)Nc2nnc(C(C)C)s2)nc2c1c(=O)n(C)c(=O)n2C
  i, 0.39
CCOc1ccc(CCNC(=O)COC(=O)c2nn(C)c(=O)c3ccccc23)cc1OCC
  i, -0.1
COc1ccc(S(=O)(=O)Nc2ccc(NC(C)=O)cc2)cc1Cl
  i, -0.59
COc1ccc(C(=O)NCC(=O)OCC(=O)N2CCCc3ccccc32)cc1
  i, -0.69
Cc1cc(NS(=O)(=O)c2ccc(NC(=S)NC(=O)c3cccc(S(=O)(=O)N(C)C)c3)cc2)no1
  i, 1.52
O=c1c2ccccc2nnn1COc1ccc(F)cc1Cl
  i, 0.52
O=C(NCCNc1ccc([N+](=O)[O-])cc1)c1cccs1
  i, 0.2
O=C(NC1CCCC1)c1ncn[nH]1
  i, 0.15
CCc1nnc(N/N=C/c2cccs2)n1N
  i, 0.09
COc1cc2c(cc1OC)C(c1ccc(Br)cc1)N(C(=O)c1ccccc1C(=O)O)CC2 (configuration not stated)
  i, -0.14
CC1CCCCN1S(=O)(=O)c1ccc(-n2cnnn2)cc1 (configuration not stated)
  i, 0.89
Cc1ccc(C)n1-c1ccncc1
  i, 1.13
COc1ccc(NC(=O)C2CCN(S(=O)(=O)c3cn(C)nc3C)CC2)cc1
  i, 0.93
COC(=O)c1nn(-c2cccc(C(F)(F)F)c2)c(=O)cc1Sc1ccccn1
  i, 2.01
CC(C)N1CCN(Cc2ccc(Oc3ncccn3)cc2)CC1CCO (configuration not stated)
  i, -0.69
COc1ccc(OC)c(NC(=O)CSc2nnc(-c3ccco3)n2-c2ccccc2)c1
  i, 0.38
O=C(c1cnn2c(C(F)(F)F)cc(-c3ccco3)nc12)N1CCc2ccccc2C1
  -7*, -0.85*
C=CCn1c(N2C(=O)CC(Cc3ccccc3)C2=O)nc2ccccc21 (configuration not stated)
  i, -0.75
CN(C)S(=O)(=O)c1ccc(NC(=O)N2CCN(c3ccccc3)CC2)cc1
  i, -0.99
CC(NC(=O)Nc1ccc2c(c1)OCO2)c1ccncc1 (configuration not stated)
  i, 2.37

More entries follow.
Below each SMILES: KCNQ2 inh, KCNQ2 inh baseline
O=C(COc1ccc([N+](=O)[O-])cc1)Nc1ccccc1C(=O)NC1CC1
  i, -1.69
C=CCN1C(=O)/C(=C/c2ccsc2)SC1=S
  i, 0.13
Cn1c(=O)c2c(=O)cc(NNC(=O)CC#N)[nH]c2n(C)c1=O
  i, 0.1
COc1ccc(C(CC(=O)O)NC(=O)COc2ccc(C)cc2)cc1OC (configuration not stated)
  i, 1.72
COCCNC(=S)N(CCN(C)C)Cc1cc2cc3c(cc2[nH]c1=O)OCO3
  i, 1.97
CCN(CC)S(=O)(=O)c1cc(NC(=O)C(=O)c2c(-c3ccccc3)cc3ccccn23)ccc1C
  i, 0.07
COc1cccc(NC(=O)Cn2c(=O)n(CC3CCCO3)c(=O)c3ccccc32)c1 (configuration not stated)
  i, -1.17
CCOc1cc(-c2nnc(NC(=O)c3ccco3)o2)cc(OCC)c1OCC
  i, -0.94
CCOC(=O)C1(Cc2ccccc2C)CCCN(C(=O)CCn2nccc2C)C1 (configuration not stated)
  i, -1.11
CC(C)CN(C(=O)C1CCCC1)C1CCS(=O)(=O)C1 (configuration not stated)
  i, -0.18
OCc1ccccc1OCCCN1CCC(Cc2ccccc2)CC1
  i, 0.03
COc1ccc(C(N)=S)cc1
  i, 1.29
COc1ccc(CCNC(=O)CSc2nnc(C(C)N(C)C)n2Cc2ccccc2)cc1OC (configuration not stated)
  i, 0.36
CCc1oc(C(=O)O)cc1COC
  i, 1.07
Cc1cc(C)n(C(=O)c2ccc([N+](=O)[O-])cc2Cl)n1
  i, 0.13
COc1ccccc1-c1cc(C(F)(F)F)nc(NCc2cccs2)n1
  i, 0.29
O=C(Nc1ccc(Cl)c(Cl)c1)c1csc(-c2ccccc2)n1
  i, 1.71
O=C(O)CNC(=O)c1ccc(NS(=O)(=O)c2ccc3ccccc3c2)cc1
  i, 0.38
O=C(CSCc1ccc(Cl)cc1)Nc1ccc(S(=O)(=O)N2CCCCCC2)cc1
  i, -1.06
Cc1nn(C)c(C)c1CN(C)C(=O)C1(C)CC1(Br)Br (configuration not stated)
  i, 0.46
Cc1cc(/C=C2/SC(=S)N(c3cccc(C(F)(F)F)c3)C2=O)c(C)n1-c1cccnc1
  i, 0.08
Cc1cccc(C)c1NC(=O)CN1C(=O)S/C(=C\c2cccn2-c2cccc(C(=O)O)c2)C1=O
  i, -0.12
CCN(c1ccccc1)S(=O)(=O)c1ccc(Cl)c(NC(=O)CN2CCCCCC2)c1
  i, 0.39
O=C(c1cccs1)N1CCN(c2ccccc2)CC1
  i, -0.39
C/C(=N\O)C(=O)NCc1ccccn1
  i, 0.36
Nc1n[nH]c(N)c1N=Nc1cccc(F)c1
  i, 0.32
O=C(NN(c1ccccc1)c1ccccc1)c1ccc([N+](=O)[O-])o1
  i, -0.02

Bioassay records from PubChem BioAssay.
